LASV entry inh – qHTS for Inhibitors of binding or entry into cells for Lassa Virus; Lassa virus pseudotype entry inhibition, cell reporter; control for the full effect not named in the record; Potency, µM (top dose mostly 37.9 µM), for the others: at the top dose activity change, negative = inhibition, usual class: inhibitors; 300,000 compounds, 1.2% hits; AID 540256, 2011; active means well fitted inhibition curve with a large enough effect; inconclusive means small, poorly fitted or top-dose-only effect, or effect the other way; inactive means flat fitted curve, though single readings scatter; tested in HEK293 cells; also: % is scaled to controls: 0 for no effect and ±100 for the full control effect; nearly all actives have a fitted effect of over 50% in size; luciferase read-out
NS1 function inh – qHTS Assay for Inhibitors of Influenza NS1 Protein Function | S. cerevisiae slowed by influenza A NS1, growth recovery by OD600 | Potency, µM (series often up to 46.1 µM), for inactives: at the top dose activity, positive = more growth | 270,000 compounds, 0.4% hits | AID 2326, 2010; active means well fitted rising curve with a large enough effect; inconclusive means small, poorly fitted or top-dose-only effect; inactive means no such curve, though single readings can be large or run the other way; also: nearly all actives have a fitted effect of over 50% in size
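OD600 was taken as the measure of yeast growth restored by compound in an NS1-expressing S. cerevisiae strain. Cells had been washed out of glucose medium and diluted 1:100 into galactose -URA medium, pH 6.0.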
SARS PLP yeast – qHTS of Yeast-based Assay for SARS-CoV PLP; AID 485353, 2010; S. cerevisiae expressing SARS-CoV PLpro, growth rescue; control for the full effect not named in the record; 330,000 compounds, 0.19% hits; Potency, µM (titrated, usually from 32.9 µM), without a hit: top-dose activity, positive = growth rescue; active means well fitted rising curve with a large enough effect; inconclusive means small, poorly fitted or top-dose-only effect; inactive means no such curve, though single readings can be large or run the other way; also: 0% is about no effect; nearly all actives have a fitted effect of over 55% in size; growth read by luminescence after 48 h
RE007 growth inh – qHTS Assay for Inhibitors of the HIV-1 protein Vpr. S. pombe RE007 Vpr strain, BacTiter-Glo ATP luminescence, 24 h; control for the full effect not named in the record. Potency, µM (highest dose often 92.2 µM), without a hit: at the highest dose activity change, negative = less growth. 360,000 compounds, 0.21% hits; active = well fitted falling curve with a large enough effect; inconclusive = small, poorly fitted or top-dose-only effect; inactive = no such curve, though single readings can be large or run the other way;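 also: % is scaled to controls: 0 for no effect and ±100 for the full control effect; nearly all actives have a fitted effect of over 50% in size; the assay follows cell death caused by Vpr and the record does not say whether a fall means rescue or toxicity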
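Fission yeast RE007 carrying one integrated HIV-1 vpr copy, seeded at OD 0.01 in PMG+AL medium with 23 nL pinned compound. Grown 24 h at 30 degrees; viability read by BacTiter-Glo luminescence after 5 min.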
Cruzain inh Det – qHTS Assay for Promiscuous and Specific Inhibitors of Cruzain (with detergent) | Cruzipain (Trypanosoma cruzi), P25779 | Potency, µM, for inactives: max response, negative = inhibition, hits mostly inhibitors | 200,000 compounds, 0.43% hits | purified cruzain, Z-FR-AMC fluorescence, 0.01% Triton;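 also: plate controls were neutral wells for no effect and buffer without enzyme for full effect; nearly all actives have a fitted effect of over 40% in size; top concentration of the series not given in the record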
Target sequence (P25779 123-467 limits assumed): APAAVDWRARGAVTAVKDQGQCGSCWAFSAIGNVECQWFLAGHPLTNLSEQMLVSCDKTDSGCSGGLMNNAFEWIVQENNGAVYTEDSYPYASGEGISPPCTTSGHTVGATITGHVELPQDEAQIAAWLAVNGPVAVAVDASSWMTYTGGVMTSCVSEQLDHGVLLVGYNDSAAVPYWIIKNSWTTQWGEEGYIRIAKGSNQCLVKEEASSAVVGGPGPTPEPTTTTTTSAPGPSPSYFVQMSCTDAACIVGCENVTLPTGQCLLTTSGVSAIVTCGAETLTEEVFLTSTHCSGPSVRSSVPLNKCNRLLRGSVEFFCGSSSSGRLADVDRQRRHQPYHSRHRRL
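Purified cruzain (1.5 nM final) was preincubated with compounds for 15 min at room temperature in 100 mM sodium acetate pH 5.5, 5 mM DTT, 0.01% Triton X-100. Reaction started with 2 uM Z-FR-AMC; AMC fluorescence change over 60 s gave activity.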
Cruzain inh noDet – qHTS Assay for Promiscuous and Specific Inhibitors of Cruzain (without detergent) | Cruzipain (Trypanosoma cruzi), P25779 | Potency, µM, for inactives: max response, negative = inhibition, most hits filed as inhibitors | AID 1476, 2009 | 200,000 compounds, 2.3% hits | purified cruzain, Z-FR-AMC fluorescence, no detergent;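 also: plate controls were enzyme without inhibitor for no effect and buffer without enzyme for full effect; nearly all actives have a fitted effect of over 40% in size; top concentration of the series not given in the record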
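Purified cruzain at 1.5 nM, pre-incubated 15 min with compound at room temperature in 100 mM sodium acetate pH 5.5, 5 mM DTT, 0.00005% Triton X-100. Reaction started with 2 uM Z-FR-AMC; AMC fluorescence increase over 60 s gives rate.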
Marburg entry inh – qHTS for inhibitors of binding or entry into cells for Marburg Virus; Marburg virus pseudotyped entry inhibition, cell reporter; control for the full effect not named in the record; about a third of the inactives were read at about 46 µM; Potency, µM (top dose mostly 37.8 µM), without a hit: at the highest dose activity change, negative = inhibition, actives largely listed as inhibitors; 300,000 compounds, 1.8% hits; active = well fitted inhibition curve with a large enough effect; inconclusive = small, poorly fitted or top-dose-only effect, or effect the other way; inactive = flat fitted curve, though single readings scatter; tested in HEK293 cells; about a fifth of its hits are not listed in these tables; also: % is scaled to controls: 0 for no effect and ±100 for the full control effect; luciferase read-out
StopGo reporter – High Throughput Screening for Foot and Mouth Disease Virus Antivirals. 410,000 compounds, 1.2% hits. Potency, µM (top dose mostly 57.9 µM), for inactives: top-dose signal change, negative = less light. human cells with a luciferase reporter of 2A StopGo recoding; control for the full effect not named in the record; active = well fitted falling curve with a large enough effect; inconclusive = small, poorly fitted or top-dose-only effect; inactive = no such curve, though single readings can be large or run the other way; tested in HEK293T cells; also: % is scaled to controls: 0 for no effect and ±100 for the full control effect; nearly all actives have a fitted effect of over 45% in size; luciferase light after 4 h
* marks the source's active call; other numbers are inactive results; ? = inconclusive; . = not tested or not shown; & = joins results of further samples; [ ] = another dose, or the depositor's remark. Unless noted, calls follow the shape of the dose curve; as a rule, active = well fitted curve in the direction sought with a large enough effect; inconclusive = small, poorly fitted or top-dose-only effect, or another doubt; inactive = no such curve, though single readings can be large; an effect the other way counts as inactive or inconclusive. Potency is read from the fitted curve at half-maximal effect.

SMILES	LASV entry inh	NS1 function inh	SARS PLP yeast	RE007 growth inh	Cruzain inh Det	Cruzain inh noDet	Marburg entry inh	StopGo reporter
O=C(O)CCCCCNS(=O)(=O)c1cccc2nsnc12	-1.6%	10.1%	0.8%	10.0%	-1.5%	2.1%	2.5%[46.1 µM]	6.8%
CCOc1ccccc1N(C)C(=O)c1cc2c(s1)-c1ccccc1OC2	.	.	.	.	-9.2%	-0.4%	?	-12.7%
CCOC(=O)CCNC(=O)N1CCCC(C(=O)c2ccc3c(c2)OCO3)C1 (configuration not stated)	.	0.6%	0.1%	0.8%	.	.	.	-12.7%
CC(C)Cn1c(=O)oc2ccccc21	-2.6%	0.0%	-0.7%	7.2%	.	.	20.6%[46.1 µM]	8.2%
Cc1cc(NC(=O)CSc2nc3c(cc2C#N)CCCC3)no1	?	-0.5%	2.3%	0.3%	-2.0%	-12.4%	?	78.3%[activator]
O=C(NCc1ccccc1F)C1CC(=O)N(c2ccc3c(c2)OCCO3)C1 (configuration not stated)	4.6%[46.1 µM]	.	-8.1%	2.1%	.	.	-10.0%	27.7%
COC(CNC(=O)C(=O)Nc1cc2c3c(c1)CCN3C(=O)CC2)OC	.	1.4%	-8.0%	13.1%	.	.	.	-1.8%
O=C(CS(=O)(=O)Cc1ccccc1)NCC1CCCO1 (configuration not stated)	0.8%	-18.2%	-1.1%	2.9%	7.7%	-8.0%	38.8%	-14.5%
CNC(=O)NC(=O)C(C)OC(=O)c1c2c(nc3ccccc13)/C(=C/c1cccs1)CC2 (configuration not stated)	?	?	5.5%	-6.5%	-10.3%	2.1%	?	-16.9%
O=C(O)COc1ccc(/C=N/NC(=O)/C(=C/C=C/c2ccccc2)NC(=O)c2ccccc2)cc1	.	5.7%	-2.8%	2.1%	.	.	.	-5.7%
CC(C)(C)NC(=O)Cn1nnc(-c2ccc(Cl)cc2)n1	11.0%	3.8%	3.0%	2.9%	1.6%	-5.3%	-8.7%	.
O=C(OCc1ccccc1)C1=NNC2C(=O)N(Cc3ccccc3)C(=O)C12 (configuration not stated)	-27.0%[46.1 µM]	3.6%	-1.1%	13.8%	.	.	17.6%[46.1 µM]	-8.8%
O=C(NCCN1CCOCC1)c1cc([N+](=O)[O-])ccc1Cl	25.9%	15.9%	4.2%	-18.9%	.	.	-7.2%	1.1%
O=C(CSc1nnc(-c2cccnc2)n1-c1ccccc1)Nc1ccc2c(c1)OCO2	-6.0%	-6.8%	-6.6%	9.8%	2.5%	-4.5%	-17.6%	-13.4%
Cc1ccc(C)c(Nc2ccc3nonc3c2[N+](=O)[O-])c1	.	3.0%	-0.4%	-5.8%	.	.	.	-24.2%
CC(=O)N1CCN(C(=O)CSc2ncnc3sc(C)c(C)c23)CC1	1.8%	.	1.6%	0.0%	.	.	10.9%	-18.5%
CCOc1ccccc1CNC(=O)CCn1ccc2cc(S(=O)(=O)N3CCCCC3)ccc21	?	29.1%	-1.6%	4.8%	0.3%	-12.1%	.	18.7%&18.6%
COc1ccc(C(=O)OCC(=O)N2CCc3ccccc32)cc1S(=O)(=O)N1CCOCC1	-5.4%	.	1.6%	0.6%	.	.	8.8%	16.3%
CC(c1ccccc1)n1cncc1C(=O)N1CCCC1=O (configuration not stated)	?	-0.6%	-2.0%	18.9%	3.5%	7.7%	4.3%	24.7%
COc1ccc(-c2ccc(SCC(=O)N3c4ccccc4CC3C)nn2)cc1OC (configuration not stated)	-17.1%	-12.4%	?	8.8%	-5.3%	?	-54.9%	.
FC(F)(F)c1cccc(N2CCN(Cc3ccoc3)CC2)c1	?	2.5%	-0.7%	-8.6%	0.4%	-6.1%	?	-27.6%
NC(=O)C[n+]1cccc(/C=N/O)c1	.	-2.4%	-1.9%	11.8%	.	.	0.1%[46.1 µM]	-20.5%
COc1ccc(NC(=O)CCCNS(=O)(=O)c2cccs2)cc1	0.1%	-15.6%	5.6%	4.0%	-0.3%	-6.8%	-15.9%	10.4%
O=C(c1ccco1)N1CCN(CCOc2ccccc2)CC1	-1.7%	-0.8%	0.7%	-13.1%	.	.	0.4%&0.4%	7.8%
COC(=O)c1c(C(=O)c2ccc(Br)cc2)n(C)c2ccccc12	15.3%	.	-2.6%	13.5%	.	.	3.7%	?
Cc1noc2ncnc(Sc3ccc(Br)cc3)c12	?	-4.0%	-0.4%	?	.	.	?	?
Cc1ccc(CNC(=O)C2CCCN2C(=O)Nc2ccc(C)cc2)cc1 (configuration not stated)	-9.4%	20.2%	1.7%	0.5%	.	.	0.8%	27.6%
CCOC(=O)c1cc(OC(=O)c2ccc(C)cc2)n(-c2ccccc2)n1	-2.1%[46.1 µM]	.	.	.	-9.6%	26.0%	-4.0%[46.1 µM]	44.9%[activator]
CSc1nc(N2CCOCC2)c2c(c1C#N)CCCCC2	-23.4%	-23.9%	1.1%	7.2%	-3.2%	0.4%	-19.3%	?
COc1cccc(NC(=O)CN(C)C(=O)Cc2ccc3c(c2)CCC3)c1	-0.3%	.	-0.2%	-12.8%	.	.	4.5%	-4.2%
NC(=O)CC(NC(=O)Cc1cccc2ccccc12)c1ccc(NCCN2CCCC2)c([N+](=O)[O-])c1 (configuration not stated)	.	14.2%	-1.9%	17.0%	.	.	.	0.6%
O=C(O)CCCn1ccc2cc(S(=O)(=O)N3CCCC3)ccc21	.	7.4%	-1.5%	-0.9%	.	.	.	12.2%
O=C(CC1CCCC1)N1CCN(S(=O)(=O)c2cccc(F)c2)CC1	-4.5%	.	.	17.8%	.	.	-22.2%[46.1 µM]	-6.4%
COc1ccc(Cn2c(=N)c(C(=O)NCC3CCCO3)cc3c(=O)n4ccccc4nc32)cc1 (configuration not stated)	.	-0.1%	-1.3%	-11.6%	.	.	.	-14.4%
CCN(Cc1ccccc1)C(=S)Nc1cc(C(=O)OC)ccc1C(=O)OC	-6.1%	-8.7%	19.9%	-1.7%	0.2%	-3.2%	11.9%	-4.3%
CCC(C)(C)n1nnnc1C(c1ccc(C)cc1)N1CCN(C(=O)c2ccco2)CC1 (configuration not stated)	-14.7%	0.3%	-6.2%	7.1%	-2.2%	?	-1.8%	4.8%
O=[N+]([O-])c1cccc(C2=NCCC(c3ccccc3)O2)c1 (configuration not stated)	-14.4%	5.3%	3.8%	-10.5%	-7.3%	?	10.7%	?
O=C(COC(=O)c1cc[n+]([O-])cc1)Nc1ccc([N+](=O)[O-])cc1C(F)(F)F	?	.	-1.6%	5.9%	.	.	-8.7%	2.2%
CCOC(=O)c1ccc(NC(=O)Cn2c(C)nc3c(sc(=S)n3CC)c2=O)cc1	.	0.3%	3.9%	1.7%	.	.	.	-17.5%
COC(=O)/C(=C1/Oc2cc(C)oc(=O)c2S1)C(F)(F)F	?	-19.7%	-34.5%	?	-0.4%	11.2%	?	28.2µM*
CCc1c(C#N)c(SCCC(=O)Nc2ccc(OC)cc2)nc2c1C(=O)CC(C)(C)C2	?	-9.2%	-6.1%	-8.6%	-3.4%	-2.3%	?	-10.7%
O=C(COc1ccc(Br)cc1)Nc1ccc(Cc2ccncc2)cc1	2.4%[46.1 µM]	.	-18.1%	-0.2%	.	.	-6.3%[46.1 µM]	-12.6%
CC(C)c1c(C(=O)N/N=C/c2cccc(OCc3ccc(F)cc3)c2)nnn1-c1nonc1N	?	9.6%	0.8%	-19.9%	.	.	?	?
O=C(CN(c1cccc(Br)c1)S(=O)(=O)c1ccccc1)N1CCc2ccccc2C1	-22.2%[46.1 µM]	.	.	.	-4.6%	3.2%	.	11.9%
CCn1ncc(Br)c1C(=O)N(C)C12CC3CC(CC(C3)C1)C2	-16.2%	-36.2%	1.7%	0.2%	4.8%	4.3%	-6.1%	?
CC1Cc2cc(S(=O)(=O)CCC(=O)N3CCN(c4ccccc4)CC3)ccc2N1C(=O)C1CC1 (configuration not stated)	.	6.7%	2.7%	-8.3%	.	.	.	?
COc1cccc(OC)c1NC(=O)C1CCCN1C(=O)Nc1ccccc1F (configuration not stated)	-13.0%[46.1 µM]	-3.6%	-13.7%	3.0%	.	.	2.0%[46.1 µM]	-2.0%
COc1ccc(NC(=O)CSc2nnc(CN3CCOCC3)n2C)cc1Cl	7.7%	.	.	4.1%	.	.	7.7%	-14.7%
Cc1ccc(CNC(=O)c2ccccc2NS(=O)(=O)c2ccc(Cl)nc2)cc1	-27.7%	-150.0%	-1.6%	-1.7%	.	.	-2.7%	-0.3%
COc1ccc(C(=O)NCC(c2cccs2)N2CCc3ccccc32)cc1OC (configuration not stated)	-13.2%	.	-2.7%	5.0%	.	.	-5.7%[46.1 µM]	-25.4%
COc1ccc(C)cc1Nc1n[n+](-c2ccccc2)c(-c2ccc(SC)cc2)s1	.	4.1%	-6.4%	-6.5%	.	.	.	4.0%
COC(=O)c1c(NC(=O)CN2C(=O)NC3(CCC(C(C)(C)C)CC3)C2=O)sc2c1CCCCC2 (configuration not stated)	-3.6%	3.2%	-12.4%	6.3%	0.6%	15.8µM*	0.7%[46.1 µM]	-11.7%
CC1CCCC(C)N1C(=O)CSc1nnc(-c2c[nH]c3ccccc23)o1 (configuration not stated)	3.5%	3.6%	-6.9%	17.7%	-8.4%	17.6%	13.4%	-10.0%
Cc1ccc(-c2cc(C(F)(F)F)n3ncc(C(=O)N4CCCCC4c4cccnc4)c3n2)cc1 (configuration not stated)	16.1%	.	1.7%	-15.1%	.	.	-2.3%[46.1 µM]	-19.6%
COc1ccc(N2CCN(CC(O)COc3cc(C)cc(C)c3)CC2)cc1 (configuration not stated)	.	0.9%	-1.1%	-14.3%	.	.	.	-8.9%
COc1ccc(OCC(=O)Nc2ccc(-c3nc4cc(C)cc(C)c4o3)cc2)cc1	23.4%[46.1 µM]	.	.	.	-2.2%	4.0%	.	39.1%[activator]
CC(=O)c1ccc(NC(=O)C(C)Sc2nnc(-c3ccncc3)n2C2CC2)cc1 (configuration not stated)	20.8%	.	-4.3%	5.0%	.	.	?	-23.4%
CSCC(=O)NS(=O)(=O)c1ccc(C)cc1	-5.2%	32.2%	1.4%	-1.5%	2.0%	1.0%	9.1%	4.4%

Screens deposited in PubChem BioAssay by National Center for Advancing Translational Sciences (NCATS).
